ALR H2O2 inh: inhibitors of human sulfhydryl oxidase ALR | inhibition, % (concentration not given with the values) | purified ALR, DTT oxidation, H2O2 HRP-luminol luminescence | hit rate 3.8% among 290,000;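 active = mean and each replicate at 75% or more; inconclusive = only one of the two met; inactive = neither met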;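 also: stock transfer was 7.5 nL into about 7.5 µL; 0% = neutral wells and 100% = wells with inactivated enzyme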
RanGTP-Imp inh: disruptors of Ran-importin-beta complex formation – biochemical, FRET, CFP-Ran, YFP-importin-beta, homogeneous, primary screen; inhibition, % (no concentration beside the values); cell-free CFP-Ran/YFP-importin-beta FRET ratio; hit rate 1.1% among 300,000;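 active = most replicates above 15%; inconclusive = exactly half above 15%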;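 also: 0% = DMSO wells and 100% = Ran loaded with GDP instead of GTP; wells of about 40 µL received 100 nL stock; the first replicate is given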
B2AR ag: agonists of human beta-2 adrenergic receptor inducing internalization; P07550; response, % (concentration not given with the values); Am2.2-beta2AR cells, FAP receptor internalization, flow cytometry; reference of the scale not given here; hit rate 0.43% among 340,000;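 active = response above a set limit, near 3 SD of response in nonfluorescent compounds, cut at about 42% in these data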;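 also: stock transfer was 100 nL into about 11 µL; a reference agonist was the positive control; negative values mostly stem from fluorescent compounds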
Target sequence (P07550 whole entry, looked up): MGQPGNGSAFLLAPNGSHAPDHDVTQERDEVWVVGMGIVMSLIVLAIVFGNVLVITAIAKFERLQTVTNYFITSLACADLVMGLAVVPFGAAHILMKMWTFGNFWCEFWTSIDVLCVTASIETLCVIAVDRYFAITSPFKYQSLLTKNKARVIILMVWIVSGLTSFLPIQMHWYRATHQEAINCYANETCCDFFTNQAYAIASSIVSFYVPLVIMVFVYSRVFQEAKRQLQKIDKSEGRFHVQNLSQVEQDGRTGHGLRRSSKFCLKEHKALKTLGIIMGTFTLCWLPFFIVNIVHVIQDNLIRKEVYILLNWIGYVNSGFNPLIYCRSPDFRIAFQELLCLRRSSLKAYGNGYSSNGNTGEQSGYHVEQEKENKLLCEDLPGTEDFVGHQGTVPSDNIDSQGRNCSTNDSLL
Vif TR-FRET: HIV-1 Vif–A3G interaction blockers – biochemical, TR-FRET, GST-Vif 1-94, biotin-A3G peptide, dose response retest, primary screen (AID 1117319); inhibition, %; hits with a dose series show IC50 in µM; hit rate 0.57% among 260,000; TR-FRET GST-Vif / biotin-A3G peptide binding; higher % means a stronger effect; test concentration not given here; strong numbers were not always called active;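 active = above the screen mean plus three standard deviations and confirmed in dose response; inconclusive = results disagree or hit not tested in dose response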;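 also: Vif residues 1-94 fused to GST binding biotinylated APOBEC3G peptide 110-148; 0% = full assay without inhibitor and 100% = GST in place of GST-Vif; retest series ran down from 100 µM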
HNF4A DNA FP: change in binding of human HNF4 alpha to DNA. P41235. hit rate 0.3% among 360,000. activity change, % at 10 µM. HNF4a-FITC DNA binding, fluorescence polarization, 1 h; in the data active = activity change above about 30%, passing the limit was not always enough;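 also: controls were the assay level and a saturating level of protein; the project sought stronger binding though the title names inhibitors; some compounds called inactive have numbers as strong as hits; positive values seem to mean higher polarization but the record does not say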
Target sequence (P41235 whole entry, looked up): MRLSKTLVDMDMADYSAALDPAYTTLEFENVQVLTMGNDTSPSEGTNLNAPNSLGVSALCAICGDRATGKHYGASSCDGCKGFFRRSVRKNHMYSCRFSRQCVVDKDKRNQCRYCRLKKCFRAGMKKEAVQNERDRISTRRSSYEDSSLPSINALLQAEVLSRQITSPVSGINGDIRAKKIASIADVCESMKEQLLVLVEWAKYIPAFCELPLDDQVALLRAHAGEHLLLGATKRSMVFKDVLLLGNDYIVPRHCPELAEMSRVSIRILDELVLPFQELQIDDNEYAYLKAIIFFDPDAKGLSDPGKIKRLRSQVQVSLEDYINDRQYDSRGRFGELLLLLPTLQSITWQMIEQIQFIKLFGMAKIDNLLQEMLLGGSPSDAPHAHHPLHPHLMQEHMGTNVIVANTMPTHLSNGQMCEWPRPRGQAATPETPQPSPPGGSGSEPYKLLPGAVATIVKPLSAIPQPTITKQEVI
Calb FLC: affects C. albicans growth with fluconazole; C. albicans CaCi-2 (fluconazole-resistant clinical isolate) + fluconazole, Alamar Blue growth, 48 h; growth inhibition, % (test concentration not listed); hit rate 0.57% among 300,000; AID 1979;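 active = most replicates above 75%; inconclusive = exactly half above 75%; inactive = most below 75%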;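 also: all wells also contain fluconazole at 8 µg/ml as a sub-toxic cotreatment; 0% = median of DMSO wells and 100% = median of geldanamycin control wells; wells of about 8 µL received 7.5 nL stock; the first replicate is given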
LANA-H2B inh: blocks KSHV LANA binding to histone H2A/H2B; Q9QR71; cell-free LANA-H2A/H2B peptide, fluorescence polarization; inhibition, % (no concentration beside the values); hit rate 0.6% among 320,000; AID 2629; in the data active = inhibition mostly above about 10%, no sharp cut-off; inactive = mostly below about 6.7%;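 also: stock transfer was 7.5 nL into about 10 µL; 0% = median of vehicle wells and 100% = median of positive control wells; one replicate is shown; the record names a cut of 25% in any replicate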
The depositor's hits bear a star; i = inactive; u = inconclusive; x = not tested or not shown.

SMILES	B2AR ag	Vif TR-FRET	ALR H2O2 inh	Calb FLC	HNF4A DNA FP	RanGTP-Imp inh	LANA-H2B inh
CCOC(=O)c1cc(-c2ccc3c(c2)OCCO3)nc2c1c(C)nn2CCC#N	7	-4%	-2	-3	-2.6	3.8	2.9
O=C(c1cccnc1)N1CCN(S(=O)(=O)c2cccc(Cl)c2)CC1	3	0%	-16	0	6.5	-0.2	0.2
O=C(NC(=S)Nc1cnc2ccccc2c1)c1ccccc1	-12	-4%	38	35	0.5	7.5	6.0
CC(C)N1CCN(Cc2nc3c(s2)CCCC3)CC1CCO (stereo not given)	-3	-3%	-1	-5	0.4	2.4	-4.2
CCOC(=O)C1CCN(S(=O)(=O)c2c(C)[nH]c(C)c2C(=O)N2CCCCC2)CC1	-6	x	-3	16	2.7	-1.6	-2.8
COc1cccc(C(=O)Oc2ccccc2/C=C\C(=O)c2cc3ccccc3o2)c1	11	x	x	-1	-1.0	-2.6	x
CC(=O)NCCc1nc2ccccc2n1CCc1ccccc1	8	11%	x	-6	0.2	1.7	x
Cc1cc(C)c(NC(=O)Nc2ccccc2)c(Cl)c1	2	4%	x	-1	-1.9	-2.5	-5.6
COc1ccccc1CNS(=O)(=O)c1ccc2c(c1)CCCN2C(C)=O	1	x	-2	2	6.4	6.8	3.5
c1ccc(C2C3=C(Nc4ncnn42)c2ccccc2CCC3)cc1 (stereo not given)	9	3%	28	-2	-1.1	-1.3	-2.8
COc1cc2c(cc1OC)NC(=O)C2	-11	-1%	x	x	1.8	x	x
Clc1ccc(-n2cc(COCc3ccccc3)nn2)cc1	-16	5%	-20	3	0.7	-4.6	5.8
Cc1ccc2[nH]c(=O)c(CN(CCO)C(=O)N(C)C)cc2c1	-16	-1%	-15	-4	0.7	3.0	7.4
Cc1ccc(NCc2nnc(SCC(=O)N3c4ccccc4Sc4ccccc43)o2)c(C)c1	-7	x	-8	4	0.6	-2.1	5.7
O=C(Nc1ccc(OCc2ccccc2Cl)cc1)c1cccnc1	2	-5%	-5	114*	0.3	1.1	-2.1
CCC(C(=O)OC)(C(=O)OC)c1ccc([N+](=O)[O-])cc1	-4	16%	35	-10	3.6	-2.0	1.5
O=C(C1=C(O)C(=O)N(CCN2CCOCC2)C1c1cccc(F)c1)c1cc2ccccc2o1 (stereo not given)	15	x	-10	24	1.0	6.1	-1.6
CCN(CC)CCn1c(NCc2cccc(OC)c2)nc2ccccc21	29	33%	43	-2	1.2	-1.3	-0.9
Cc1nnc(SCC(=O)Nc2ncc(S(=O)(=O)c3ccc([N+](=O)[O-])cc3)s2)s1	-3	x	-17	10	-0.3	13	-2.5
CC12CCC(O)CC1=CCC1C2CCC2(C)C1CCC21CCC(=O)O1 (stereo not given)	2	-5%	-3	-2	-0.7	3.8	i
COc1ccc(CNC(=O)CN(Cc2cccs2)C(=O)CCC(=O)Nc2ccccn2)cc1	-1	-1%	x	-2	-6.1	x	-2.4
Cc1cc(SCC(=O)N2CCC(c3noc4ccc(F)cc34)CC2)nc2ccccc12	-14	-20%	-5	16	2.3	-5.4	-2.6
COCCNc1oc(/C=C/c2ccccc2)nc1C#N	5	-6%	43	-7	-1.0	1.5	0.2
Clc1ccc(-c2nnc(SCc3cn4ccsc4n3)n2CC2CCCO2)cc1 (stereo not given)	-14	31%	-12	6	1.8	0.3	-0.3
Cc1cccc(NS(=O)(=O)c2nnc(NC(=O)c3ccccc3F)s2)c1	-1	x	69	-3	-0.3	1.3	-0.6
COc1ccc(-c2noc(CCCC(=O)O)n2)cc1	4	0%	-3	23	1.8	-0.3	1.9
COCCn1c(=N)c(C(=O)NCCc2ccccc2)cc2c(=O)n3cccc(C)c3nc21	-10	0%	0	-17	0.1	192*	0.3
O=C(CCS(=O)(=O)c1ccc(Br)cc1)N1CCN(c2ccc(F)cc2)CC1	-3	53µM*	33	-3	-0.7	0.3	-4.6
CC(=O)Oc1ccc(-c2nc(-c3cccnc3)no2)cc1	6	-7%	14	-8	-1.3	3.9	-11
Cc1csc2ncc(C(=O)Nc3ccc4c(c3)OCCO4)c(=O)n12	1	x	x	7	2.2	0.3	0.0
Fc1cc(Br)cc(F)c1NC(=S)N1CCOCC1	-5	-4%	6	3	-3.9	0.5	-1.5
CCS(=O)(=O)N1CCC(C(=O)NCc2ccco2)CC1	-2	-2%	-1	-11	-0.4	2.8	1.2
Cc1ccc2[nH]c(CNC(=O)c3ccc(F)cc3)cc2c1	-5	5%	-10	-15	-0.6	-4.3	-2.7
COc1cccc(Cn2nnc(C(=O)NCCc3ccc(Cl)cc3)c2N)c1	6	80%	x	-6	0.8	3.5	-0.8
O=S(=O)(NCCN1CCOCC1)c1ccc(Cl)s1	-5	-5%	-2	90*	4.1	6.2	-1.6
CCOc1ccccc1-c1nc(CN2CCC(C(=O)N3CCOCC3)CC2)c(C)o1	2	-1%	18	0	3.6	3.2	-15
COc1cccc2cc(-c3cc(=O)oc4cc(C)c(OCC(C)=O)cc34)oc12	16	x	2	15	1.3	1.8	3.0
O=C(N/N=C/C=C\c1cccc([N+](=O)[O-])c1)c1ccccn1	-5	0%	-20	1	-0.6	0.2	61*
CC(C)c1nc2c(c(=O)c3ccccc3n2C)c(=O)n1CCc1ccccc1	-9	x	-8	u	3.1	8.4	8.2
CCC(C)[C@H](NC(=O)Nc1ccc(Oc2ccccc2)cc1)C(=O)O (stereo not given in full)	-14	-2%	3	-3	0.8	0.6	6.1
COc1ccc(-c2oc(=O)c3cc(OC)c(OC)cc3c2/C=C/c2ccc([N+](=O)[O-])cc2)cc1	-3	x	-5	x	2.4	x	6.9
O=C(Nn1cnc2ccccc2c1=O)c1ccccc1Cl	-2	-3%	0	0	0.8	-2.0	-0.6
O=C(Cc1cc(=O)[nH][nH]1)N/N=C/c1ccccc1[N+](=O)[O-]	4	x	x	-8	-4.8	-0.8	0.1
COc1ccc(C(=O)NN2C(=O)C3C4C=CC(O4)C3C2=O)cc1 (stereo not given)	2	4%	0	1	-2.8	u	2.0
CCOC(=O)C1CCN(CCCSc2ccc(C)cc2)CC1	-7	x	x	-4	0.2	-2.5	-2.3
Cc1nn(Cc2ccc(C(=O)Nc3ccccc3F)cc2)c(C)c1Cl	2	x	-4	17	0.8	-13	-3.8
Cn1c(=O)cc(OCCCC(=O)NCCC2=CCCCC2)c2ccccc21	-13	3%	-2	9	1.3	0.7	-2.1
CCCN(CC1CC1)C(=O)CSc1nnc(-c2ccco2)n1N	x	-8%	3	-10	x	5.1	1.0
COC(=O)c1ccc(N2CCN(C)CC2)c(NC(=O)c2cc3ccccc3o2)c1	-11	-12%	x	-35	-0.7	2.0	0.2
O=C(Nc1cccc(Cl)c1)c1ccc(NC2=NC3CS(=O)(=O)CC3S2)cc1 (stereo not given)	-2	x	-8	-3	-3.5	-0.9	-5.5
CCCNC(=O)C1(CC2CC(c3ccccc3)=NO2)CCN(C(=O)C2(C)CC2)CC1 (stereo not given)	-4	x	-1	-16	1.8	0.2	1.1
Cc1ccnc(NC2c3ccccc3C(=O)N2Cc2ccccc2Cl)c1 (stereo not given)	-4	-6%	-10	2	2.8	5.1	1.9
O=C1C2C3C=CC(C2C(=O)N1C1CCCCC1)C1C2C(=O)N(C4CCCCC4)C(=O)C2C31 (stereo not given)	2	-12%	-3	16	1.2	-0.5	-8.3
Cc1nc2cncc(Br)c2n1C	0	1%	0	2	0.8	4.5	2.8
COc1cccc(CNc2ccc(F)c([N+](=O)[O-])c2)c1O	0	-12%	98*	-19	3.5	-2.2	5.1
Cc1ccc(S(=O)(=O)Nc2nc3c(s2)C(=O)CC(C)(C)C3)cc1	0	x	0	-10	-8.8	x	-1.7
Cc1cccc(N2CCN(C(=O)c3cccc(S(=O)(=O)N4CCCCC4)c3)CC2)c1C	0	-10%	-8	x	-1.3	x	0.3
Cc1cc(OCC(=O)O/N=C(\N)c2ccccc2)cc(C)c1Cl	6	0%	-2	-15	-3.6	-2.0	0.2
O=[N+]([O-])c1cc(CN2CCC(O)CC2)ccc1Cl	-10	3%	-10	6	1.3	3.6	4.8
Cn1nc(C(=O)Nc2nc3ccccc3[nH]2)ccc1=O	15	x	-30	-1	0.8	-2.9	-5.7

Additional structures follow.
SMILES	B2AR ag	Vif TR-FRET	ALR H2O2 inh	Calb FLC	HNF4A DNA FP	RanGTP-Imp inh	LANA-H2B inh
O=C(Nc1ccc2c(c1)OCCO2)c1cccs1	-16	-13%	4	-2	-2.8	-0.6	2.1
COc1ccc(Cl)cc1N(CC(=O)Nc1ccccc1SC)S(C)(=O)=O	-1	18%	-6	11	0.1	-2.0	-1.9
CCCn1c(=N)n(CC(=O)C(C)(C)C)c2ccccc21	1	-1%	35	16	-1.7	4.0	-2.4
CC1CC(=O)N(CC(=O)Nc2ccccc2F)c2ccccc2S1(=O)=O (stereo not given)	-4	x	-7	3	2.9	0.5	3.1
COc1ccc(CCNC(=O)CN(c2ccc(OC)c(OC)c2)S(C)(=O)=O)cc1	-5	-1%	-8	-3	-1.2	0.5	4.7
Cc1ccc(C2C(C#N)=C(N)N(N(C)C)C3=C2C(=O)CCC3)cc1 (stereo not given)	-1	12%	-21	3	6.7	0.7	-4.8
COC(=O)c1nn(-c2cccc(C)c2)c2nnc(Cc3ccccc3)c(=O)n12	2	x	-4	u	-6.6	5.2	-9.4
Cc1cccc(C(=O)NCCCn2ccnc2)c1C	-2	x	-9	4	3.4	0.9	-0.5
O=C(c1cc(-c2ccco2)nc2ccccc12)N1CCCC(C(F)(F)F)C1 (stereo not given)	-2	u	x	x	-2.0	x	3.3
CCOC(=O)C1=C(C)N=C(SC)N(C)C1c1ccccc1 (stereo not given)	-2	-3%	2	11	-3.6	8.6	3.2
Cc1ccccc1OCC(=O)N/N=C/c1cc2ccccc2nc1Cl	3	-3%	x	-2	-2.9	5.4	0.3
O=C(COC(=O)c1ccccc1O)Nc1ccc(OC(F)F)cc1	6	-6%	1	-2	-2.1	1.8	-2.9
CC(=O)CCc1c(C)c2cc(C)ccc2[nH]c1=O	0	-2%	1	u	1.8	2.5	-0.1
CCOC(=O)c1cc(-c2ccccc2)sc1NC(=O)COC(=O)c1ccc(Cl)c(S(N)(=O)=O)c1	5	x	-1	-2	-2.7	1.9	-6.5
Cc1noc(C)c1C(=O)Nc1cccnc1	4	5%	-6	-18	-0.7	x	-1.4
Cn1nnc(NC(=O)c2ccccc2F)n1	-3	19%	3	2	1.0	4.2	-3.7
NS(=O)(=O)c1ccc(CCNC(=O)c2ccc3nc4ccc(Cl)cc4c(=O)n3c2)cc1	-11	-7%	x	5	-1.0	-2.6	-2.8
COc1ccc(CC(=O)N2CCCc3ccccc32)cc1	-1	0%	2	-4	-1.3	-1.4	3.5
C=CCSc1nnc2c(n1)-c1cccc3cccc-2c13	-1	x	10	3	-4.0	6.5	2.6
COc1nc(-c2ccccc2)c2cc(C)ccc2n1	-4	x	-22	-9	1.1	1.3	-0.3
NS(=O)(=O)c1ccc(NC(=O)CN2CCN(Cc3ccccc3)CC2)cc1	-6	19%	-13	-2	-1.5	4.1	2.1
COc1ccc(/C=C/C(=O)Nc2cc(S(=O)(=O)N3CCOCC3)ccc2N2CCCC2)cc1OC	-3	15%	-14	5	2.9	1.7	-8.9
CCCc1cc(=O)oc2cc(OCc3nn[nH]n3)ccc12	8	25%	16	-11	1.0	1.0	1.3

High-throughput results as filed in PubChem BioAssay.
